Compound activity (PubChem)
ALR H2O2 inh = blocks human ALR sulfhydryl oxidase activity | P55789 | purified ALR, DTT oxidation, H2O2 HRP-luminol luminescence | inhibition, % (test concentration not listed) | hit rate 3.8% among 290,000;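 active = mean and each replicate at 75% or more; inconclusive = only one of the two met; inactive = neither met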;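 also: stock transfer was 7.5 nL into about 7.5 µL; 0% = neutral wells and 100% = wells with inactivated enzyme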
Target sequence (P55789 whole entry, looked up): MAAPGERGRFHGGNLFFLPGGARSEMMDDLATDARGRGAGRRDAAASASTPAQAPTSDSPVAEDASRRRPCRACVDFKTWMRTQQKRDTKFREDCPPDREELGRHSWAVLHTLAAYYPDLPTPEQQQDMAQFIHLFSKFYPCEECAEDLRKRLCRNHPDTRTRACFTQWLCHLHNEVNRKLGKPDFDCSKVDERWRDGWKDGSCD
UCH37 DUB inh = blocks the human deubiquitinase UCH37; Q9Y5K5; purified proteasome/UCH37, Ub-AMC cleavage fluorescence; inhibition, % (test concentration not listed); hit rate 0.33% among 330,000; AID 588478;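 active = mean of two replicates above 20%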;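 also: 0% = compound-free wells with enzyme and 100% = wells lacking proteasome; stock transfer was 100 nL into about 20 µL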
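Test system – human UCH37 enzyme supplied as purified proteasome complex · Incubation – 30 min preincubation with enzyme, 25 min cleavage at room temperature · Detection – AMC fluorescence from Ub-AMC cleavage, excitation 355 nm, emission 460 nm · Benchmarks – no-proteasome wells (full inhibition) and compound-free wells (no inhibition)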
Beta2AR agonist = agonists of human beta-2 adrenergic receptor inducing internalization; AID 504454; P07550; Am2.2-beta2AR cells, FAP receptor internalization, flow cytometry; reference of the scale not given here; hit rate 0.43% among 340,000; response, % (no concentration beside the values);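 active = response above a set limit, near 3 SD of response in nonfluorescent compounds, cut at about 42% in these data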;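 also: stock transfer was 100 nL into about 11 µL; a reference agonist was the positive control; negative values mostly stem from fluorescent compounds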
Target sequence (P07550 whole entry, looked up): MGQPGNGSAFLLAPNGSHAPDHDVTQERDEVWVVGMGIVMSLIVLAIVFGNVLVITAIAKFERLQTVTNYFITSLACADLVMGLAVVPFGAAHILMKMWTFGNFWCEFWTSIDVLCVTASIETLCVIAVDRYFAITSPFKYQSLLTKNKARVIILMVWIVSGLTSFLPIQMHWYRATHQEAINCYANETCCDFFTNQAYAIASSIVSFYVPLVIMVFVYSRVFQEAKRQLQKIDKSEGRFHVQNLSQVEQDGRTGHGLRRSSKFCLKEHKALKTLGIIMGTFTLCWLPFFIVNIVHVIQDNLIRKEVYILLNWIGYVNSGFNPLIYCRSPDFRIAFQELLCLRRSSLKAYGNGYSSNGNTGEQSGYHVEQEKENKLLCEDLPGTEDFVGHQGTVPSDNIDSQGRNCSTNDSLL
HNF4A DNA FP = change in binding of human HNF4 alpha to DNA | P41235 | HNF4a-FITC DNA binding, fluorescence polarization, 1 h | activity change, % at 10 µM | hit rate 0.3% among 360,000 | AID 1224865; in the data active = activity change above about 30%, passing the limit was not always enough;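 also: controls were the assay level and a saturating level of protein; the project sought stronger binding though the title names inhibitors; some compounds called inactive have numbers as strong as hits; positive values seem to mean higher polarization but the record does not say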
FGF22 binding = FGF22 (human) thermal shift binding. calls only at 9.99 µM. recombinant FGF22 thermal shift, SYPRO orange fluorescence; percent of sucrose octasulfate shift, DMSO zero. Q9HCT0. hit rate 1.5% among 340,000. AID 651658;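 active = melting point raised past a set limit in the mean and every replicate; inconclusive = no clear call; three in four hits are not shown here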
Target sequence (Q9HCT0 whole entry, looked up): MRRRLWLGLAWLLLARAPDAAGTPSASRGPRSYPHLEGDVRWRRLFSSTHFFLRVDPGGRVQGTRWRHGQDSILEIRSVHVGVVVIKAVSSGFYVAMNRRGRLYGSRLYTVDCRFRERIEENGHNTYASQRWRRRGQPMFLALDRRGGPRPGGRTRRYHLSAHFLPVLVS
LANA-H2A inh = blocks KSHV LANA binding to histone H2A/H2B. AID 2629. hit rate 0.6% among 320,000. cell-free LANA-H2A/H2B peptide, fluorescence polarization. Q9QR71. inhibition, % (no concentration beside the values); in the data active = inhibition mostly above about 10%, no sharp cut-off; inactive = mostly below about 6.7%;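 also: stock transfer was 7.5 nL into about 10 µL; 0% = median of vehicle wells and 100% = median of positive control wells; one replicate is shown; the record names a cut of 25% in any replicate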
E coli growth = E. coli growth inhibition. OD600 absorbance (concentration not given with the values). Escherichia coli growth, OD600, 23 h; hits give low values. hit rate 0.21% among 330,000;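 active = OD600 absorbance below the run mean of sample wells minus 3.6 SD, in any replicate, cut at about 0.56 in these data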;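 also: stock transfer was 300 nL into about 60 µL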
Starred values were filed as active, the others as inactive; i = inactive; ? = inconclusive; nt = not tested or not shown. Only part of the results is shown, so the mix of outcomes need not match the whole.

SMILES	ALR H2O2 inh	UCH37 DUB inh	Beta2AR agonist	HNF4A DNA FP	FGF22 binding	LANA-H2A inh	E coli growth
COc1ccc(C)cc1S(=O)(=O)N(CC(=O)Nc1cccc([N+](=O)[O-])c1)c1cc(C)cc(C)c1	nt	4.2	-3	2.6	i	-11	0.7
CCC(NC(=O)Nc1cc(OC)c(OC)c(OC)c1)(C(F)(F)F)C(F)(F)F	nt	1.2	-1	2.1	nt	-2.6	0.68
CC(=O)NC1(NC(C)=O)CCN(C)CC1	3	-1.1	-6	-3.7	i	-1.3	0.68
CN1CCN(S(=O)(=O)c2cccc(C(=O)NCCOc3ccccc3F)c2)CC1	0	4.3	-2	-3.5	i	2.2	0.69
CN(c1ccc([N+](=O)[O-])cc1C(N)=O)C1CCCCC1	6	10	2	-0.4	i	0.1	0.64
CCCNC(=O)Cn1nc(C)n2c(cc3cc(F)ccc32)c1=O	-12	0.7	-13	1.9	i	-1.0	0.7
COc1ccc(C(O)(c2ccccc2)C(C(=O)O)c2ccccc2)cc1 (stereo unspecified)	nt	-2.4	-3	1.4	i	nt	0.67
CCOC(=O)CSCC(=O)Nc1nnc(-c2cccc([N+](=O)[O-])c2)s1	1	0.6	-30	0.4	i	3.9	0.79
COc1ccc(C2=NO[C@@H]3[C@@H]4C[C@@H]([C@H]5C(=O)N(C)C(=O)[C@@H]45)[C@H]23)c(OC)c1	-1	0.6	-9	-5.0	i	-0.8	0.67
COc1cc(SC)ccc1C(=O)NNC(=O)c1cc(C)oc1C	nt	3.1	-6	3.5	i	-4.9	0.62
CCn1ncc(Br)c1C(=O)Nc1ccc(C(C)C)cc1	nt	3.4	3	1.7	i	-5.6	0.64
O=S(=O)(c1ccccc1)c1nc(-c2ccco2)oc1NCCCn1ccnc1	10	3.3	-5	0.4	nt	-1.7	0.73
CCOc1cccc(OCCNC2CCCC2)c1	-2	0.8	1	-2.8	i	-4.3	0.67
c1ccc(C2Nc3ccccc3-c3nc4ccccc4n32)cc1 (stereo unspecified)	1	i	1	0.3	nt	1.3	0.67
CCCc1nc2ccccc2n1CCc1ccccc1	-5	1.2	-3	2.5	i	-0.8	0.64
COc1ccc(S(=O)(=O)Nc2cccc3c2O[C@H](CN(C)C(=O)Nc2ccccc2)[C@@H](C)CN([C@H](C)CO)C3=O)cc1	nt	6.2	0	-0.6	i	nt	0.72
O=C(NN=Cc1cc(=O)[nH]c(=O)[nH]1)c1ccncc1	nt	nt	-16	2.5	i	nt	nt
C/C(=N\OCc1ccc(C#N)cc1)c1cc2ccccc2o1	-11	nt	-4	-0.1	i	-1.8	nt
O=C(O)CN=C1NC2(CCCC2)Cc2ccccc21	-4	-0.5	9	0.9	nt	7.2	0.65
Cc1cccc2cn[nH]c12	0	-0.8	-7	-2.2	i	0.6	0.69
O=C(c1ccc([N+](=O)[O-])cc1[N+](=O)[O-])N1CCN(C(=O)C2CCCO2)CC1 (stereo unspecified)	-50	2.4	2	-4.8	i	-3.3	0.68
CC1CCCN(CCSc2ccc(Cl)cc2)C1 (stereo unspecified)	0	1.7	4	-0.9	i	0.9	0.63
COc1ccccc1-c1n[nH]c(=S)n1Cc1ccccc1	86*	0.4	14	-2.8	i	0.4	0.73
CCOc1ccccc1NC(=O)C1CCN(c2nc(-c3ccc(OC)cc3)no2)CC1	-22	4.7	0	3.5	i	2.2	0.69
COCCCNC(=S)NNC(=O)c1ccc2c(c1)OCO2	21	37*	-5	1.1	nt	-2.7	0.68
CC1CCCC(NS(=O)(=O)c2ccc3c(c2)OCCO3)C1C (stereo unspecified)	-4	4.4	-1	-4.3	nt	4.9	0.72
O=C(Cn1cnc2c(nnn2-c2ccc(F)cc2)c1=O)NCC1CCCO1 (stereo unspecified)	-3	0.9	4	1.9	i	8.1	0.62
Cc1ccc(NC(=O)CCC(=O)OCCCC(F)(F)C(F)(F)F)cc1	nt	-3.5	4	-0.1	nt	-8.0	0.72
COc1ccc(OC)c(-c2csc(NC(=O)COC(=O)C3CCC3)n2)c1	3	3.8	7	-1.2	i	-1.8	0.68
CCC(=O)Nc1nc(-c2ccccc2)nc(SC)c1C(C)=O	4	1.1	0	5.1	i	6.4	0.71
Fc1ccc(NC(=S)NCc2ccc3c(c2)OCO3)cc1	0	5.4	-9	1.7	i	-5.6	0.65
COc1ccc([C@H]2[C@H]3C=CC[C@@H](C)[C@@H]3C(=O)N2Cc2ccccc2)cc1Cl	-1	2.0	5	-4.7	i	3.0	nt
COC(=O)c1ccc(CN(c2ccccc2OC)S(=O)(=O)c2cccs2)o1	-2	0.4	40	1.0	nt	0.3	0.78
OCCNC(=S)NCCc1ccccc1	-2	1.1	0	-2.1	nt	3.1	0.68
CC1(C)CC(=O)C2=C(C1)Nc1ncnn1C2c1cccs1 (stereo unspecified)	-13	-6.5	2	2.8	i	5.9	0.67
CN(C)/C=N/c1c(C#N)cnn1-c1nc2ccccc2s1	-3	nt	-2	-0.3	nt	3.6	nt
Cc1ccc(S(=O)(=O)N2CCC(C(=O)Nc3ccc(S(=O)(=O)N4CCCC4)cc3)CC2)cc1C	1	-0.9	24	-2.2	i	-5.7	0.66
CN(C)c1ccc(C(CNS(=O)(=O)c2ccc([N+](=O)[O-])cc2)N2CCCC2)cc1 (stereo unspecified)	37	1.5	0	-0.4	i	-3.1	0.61
O=C(Nc1cccc(F)c1)N1CCCC(CNS(=O)(=O)Cc2ccccc2)C1 (stereo unspecified)	4	1.5	-12	2.5	i	-1.6	0.63
Cc1nnc(SCC(=O)Nc2ccc(Cl)cn2)n1Cc1ccccc1	-1	-0.8	-5	1.2	nt	-1.4	0.69
CCOC(=O)CCc1nn(C)c(=O)c2ccccc12	2	0.5	-11	0.3	i	-6.4	0.7
O=C(CSc1nnc2sc3ccccc3n12)NCc1ccc2c(c1)OCO2	-1	1.8	-24	-1.7	i	1.6	0.68
O=C(c1ccc(Cn2c(=S)[nH]c3ccc(N4CCOCC4)cc3c2=O)cc1)N1CCN(c2ccc(F)cc2)CC1	nt	nt	10	-0.1	i	-1.4	nt
CC(C)(C)NC(=O)CSc1nc(Cc2ccccc2)nc2ccccc12	98*	2.1	3	-3.1	i	-4.5	0.67
Cc1ccccc1-c1nc(CS(=O)CC(=O)NC2CC2)c(C)o1 (stereo unspecified)	99*	0.7	3	0.4	i	2.7	0.71
Cc1nc(N2CCN(Cc3ccc4c(c3)OCO4)CC2)c2cc(-c3ccccc3)sc2n1	nt	-54	12	3.5	i	0.2	0.71
C#CCOCCOCCOCCNc1nc(N2CCN(C(=O)C(Cc3ccc(O)cc3)n3cc(C(N)C(C)CC)nn3)CC2)nc(N2CCN(C(=O)C(Cc3ccc(O)cc3)n3cc(C(N)C(C)CC)nn3)CC2)n1 (stereo unspecified)	2	3.2	-7	2.7	i	-1.8	0.71
Cc1cccc(NC(=O)Nc2ccc(Cl)cc2)n1	-23	-1.3	-3	1.1	i	-3.4	0.66

Sorted by length of the SMILES (lowest first): some entries from above.
SMILES	ALR H2O2 inh	UCH37 DUB inh	Beta2AR agonist	HNF4A DNA FP	FGF22 binding	LANA-H2A inh	E coli growth
Cc1nnc(SCC(=O)Nc2ccc(Cl)cn2)n1Cc1ccccc1	-1	-0.8	-5	1.2	nt	-1.4	0.69
Cc1ccccc1-c1nc(CS(=O)CC(=O)NC2CC2)c(C)o1 (stereo unspecified)	99*	0.7	3	0.4	i	2.7	0.71
C#CCOCCOCCOCCNc1nc(N2CCN(C(=O)C(Cc3ccc(O)cc3)n3cc(C(N)C(C)CC)nn3)CC2)nc(N2CCN(C(=O)C(Cc3ccc(O)cc3)n3cc(C(N)C(C)CC)nn3)CC2)n1 (stereo unspecified)	2	3.2	-7	2.7	i	-1.8	0.71

Other results:
SMILES	ALR H2O2 inh	UCH37 DUB inh	Beta2AR agonist	HNF4A DNA FP	FGF22 binding	LANA-H2A inh	E coli growth
O=C(Cn1nc(-c2ccccc2)c2ccccc2c1=O)Nc1ccc(O)cc1	nt	3.3	-5	5.2	i	2.4	0.66
CCN(CC)c1ccc(/C=N/NC(=S)NCc2ccccc2)c(O)c1	43	nt	7	1.7	i	0.7	nt
COc1ccc(CCNC(=O)C(=O)NCC2CCCN2S(=O)(=O)c2cccs2)cc1OC (stereo unspecified)	-2	4.9	11	2.6	i	-0.3	0.66
Fc1ccc(NC(=S)N2CCN(c3cccc(C(F)(F)F)c3)CC2)cc1	10	-0.6	-9	2.5	i	0.0	0.68
O=C(Nc1ccccc1)N(Cc1ccccc1)C1=NCCS1	99*	5.1	0	-3.7	nt	0.5	0.79
CC1CCN(C(=O)c2cc3ccccc3c(=O)o2)CC1	-8	2.9	-3	0.6	i	0.2	0.68
COc1ccccc1CN1CC(C(=O)NCCSc2nnnn2C)CCC1=O (stereo unspecified)	1	5.6	-9	-3.3	i	-1.0	0.72
COc1ccc(C(=O)NCCN2CCOCC2)cc1OC	-3	5.9	-7	0.3	nt	0.5	0.62
CCCN1C(=O)/C(=C/c2ccc3c(c2)OCO3)NC1=S	nt	-0.3	5	-1.4	nt	nt	0.67
Cc1cc(OCC[N+]2(C)CCCCC2)nc2ccccc12	-4	-0.7	0	-2.2	nt	-2.6	0.7
CN(CC(=O)Nc1ccccc1Br)C(=O)CCc1ccccc1	-21	4.0	-7	1.8	i	-0.8	0.7
C=CCSc1nnc(NC(=O)COc2ccccc2)s1	3	1.7	-3	-2.6	i	-0.8	0.68
CC1CCc2nc3ccc(S(=O)(=O)N4CCC(C(=O)N5CCCCC5)CC4)cc3c(C(=O)O)c2C1 (stereo unspecified)	-11	3.4	-9	7.1	i	-0.2	0.72
Cc1ccc(S(=O)(=O)Nc2cc3c(C(=O)Nc4ccccc4)c(C)oc3c3ccccc23)cc1	0	1.1	9	1.7	i	1.6	0.73
CS(=O)(=O)N1CCN(c2ccccc2NC(=O)c2ccc(Cl)cc2)CC1	-6	-4.0	-4	-0.2	nt	2.3	0.77
O=C(NNC(=O)c1ccc([N+](=O)[O-])cc1C(=O)O)c1ccncc1	nt	5.4	-8	1.4	i	1.2	0.71
O=C(CCNC(=O)Cn1cnc2ccccc2c1=O)NCCC1=CCCCC1	-2	0.7	-10	-0.3	nt	-1.1	0.7
COc1cccc(/C=N/n2c(N)c(S(=O)(=O)c3cccs3)c3nc4ccccc4nc32)c1OC	-9	nt	14	1.0	nt	-1.0	nt
CC(=O)c1sc(N/N=C\c2ccc(C)cc2)nc1C	?	nt	4	4.4	i	5.5	nt
CCNC(=O)CC1C(=O)N(c2ccc(OC)cc2)C(=O)N1CCOC (stereo unspecified)	-1	3.3	7	5.1	i	-1.9	0.65
COc1ccc(Oc2nc(C)nc3c2oc2ccccc23)cc1	nt	1.9	-13	2.7	nt	-0.3	0.67
COc1cccc(C(=O)Nc2cccc3ccccc23)c1	15	2.1	-1	6.3	i	-7.3	0.66
Cc1ccccc1-c1nc(S(=O)(=O)c2ccccc2)c(NCCCN2CCOCC2)o1	7	0.0	1	1.6	i	-2.8	0.69
COc1ccc(/C=C2\CCCC3C2=NN(C(=O)CSc2ncn[nH]2)C3c2ccc(OC)cc2)cc1 (stereo unspecified)	-11	-25	9	-1.2	i	-1.3	0.74
C#CCSc1cc(C(F)(F)F)nc(-c2ccccn2)n1	-7	0.7	-16	-1.2	i	-0.9	0.68
CCOC(=O)c1c(C)[nH]c(C(=O)OCC(=O)NCc2ccc(F)cc2)c1C	-5	3.1	-6	-1.8	i	-0.1	0.67
COc1ccc(NC(=O)OC(C)C)cc1	-1	6.1	-2	1.4	nt	-5.7	0.68
Cc1nn(C(=O)c2ccco2)c(C)c1CN1C(=O)c2ccccc2C1=O	0	1.6	-8	-0.4	nt	4.3	0.69
Cc1nc(NCC2CCCO2)nc2c1C(=O)CC(C)(C)C2 (stereo unspecified)	-4	0.7	-11	-2.0	nt	-0.9	0.68
CCN(CC)S(=O)(=O)c1cc(NS(=O)(=O)c2cccc(Cl)c2Cl)ccc1C	-13	1.2	11	-4.0	i	-1.3	0.69
Cc1ccc(-c2nsc(SCC(=O)Nc3ccc4c(c3)OCO4)n2)cc1	-2	1.8	-4	2.7	nt	-3.8	0.72
